NPYLR7 ag: activates Aedes aegypti NPYLR7 receptor. HEK293T NPYLR7/Galpha15, GCaMP6s calcium fluorescence. activation, % at 10 µM. 270,000 compounds, 0.15% hits. AID 1259423; in the data active = activation above about 40%;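 also: 0% = vehicle and 100% = reference agonist at the receptor; some compounds past the cut are filed as inactive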
NPYLR7 ag max-min: recorded beside NPYLR7 ag, whose call it bears; activation, %; measured here: Max-Min RFU normalised activation; some inactives read as strong as hits;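 span of the calcium signal over five minutes; 0% = vehicle and 100% = native peptide agonist; compound fluorescence can raise it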
Numbers without * were called inactive; & = joins results of further samples. These rows are one share of the data (hit frequency here may not be typical).

SMILES	NPYLR7 ag	NPYLR7 ag max-min
COc1ccc(-c2csc(C(NC(C)=O)c3ccccc3)n2)cn1 (configuration not stated)	3	-1
O=C(NCc1ccccc1CN1CCCC1)N1CCc2ccc(F)cc21	-19	-21
COc1cc(C=CC(=O)Nc2nc(C)cs2)cc2c1OCCO2	-7	-6
O=C(c1ccco1)N(CCCn1ccnc1)c1nc2ccc(Br)cc2s1	-10	-13
Cc1noc(Cl)c1CCC(=O)N(C)Cc1ccccc1O	2	1
CCCCn1c(=O)c2c(nc3n2C(C)C(C)=NN3CCOC)n(C)c1=O (configuration not stated)	8	9
O=C(COc1ccc2ccccc2c1)N=Nc1c(O)[nH]c2ccc(Br)cc12	14	15
C=CCOC(=O)NCc1cnn2ccccc12	9	6
CN(C)C(CNCC(O)COc1ccc(C#N)cc1)c1ccccc1 (configuration not stated)	9	7
CCOC(=O)C1CCN(C(=O)c2cccnc2NC(C)C)CC1	1	-4
O=C1NC(=O)c2cc(Nc3ccccc3)c(Nc3ccccc3)cc21	4	4
Cn1ccnc1SCc1cc(=O)c(OC(=O)c2ccccc2C(F)(F)F)co1	-7	-8
Cc1ccc(-c2nc(C)c(Cc3ccccc3)c(N3CCN(S(=O)(=O)c4ccc(Cl)c([N+](=O)[O-])c4)CC3)n2)cc1	16	11
O=C(CN1C(=O)NC2(CCCCCC2)C1=O)NCc1cccs1	1	-1
COc1ccc(C(=O)N2CCC3(CC2)SCCN3C(=O)c2cccs2)cc1	-4	2
CCC1CCCCN1C(=O)c1sc2ccc(OC)cc2c1Cl (configuration not stated)	-7	-5
O=C(Nc1ccc(Nc2cc(-n3ccnc3)ncn2)cc1)Nc1ccccc1F	-11	-14
COc1ccc(OC)c(SCc2csc(Cc3ccc(C)cc3)n2)c1	1	12
O=C1c2ccccc2-c2nc3cc(Cl)c(Cl)cc3nc21	-1	-1
COc1cc(C)c(-c2nc(CN3CCN(C(=O)c4ccco4)CC3)c(C)o2)cc1C	-10	-13
Cc1cc(C)nc(SCc2cc(=O)c(OC(=O)c3cccc(Br)c3)co2)n1	-11	-6
O=C(CNc1ncnc2ccccc12)N1CCCC1	2	0
CCc1nc2n(n1)C(=O)C(C(c1ccc(F)c(F)c1)N1CCC(C(N)=O)CC1)S2 (configuration not stated)	-3	-11
C=CCOCCN1C(=O)C2C3c4ccccc4C([N+](=O)[O-])(c4ccccc43)C2C1=O (configuration not stated)	-5	-12
Cc1nn(C)c(Cl)c1S(=O)(=O)NCCc1nncn1C(C)C	5	4
Cc1ccc(N2C(=O)CC(Sc3ncccc3C(=O)O)C2=O)cc1 (configuration not stated)	-12	-18
CCOC(=O)COc1nc(SC)nc2sc3c(c12)CC(C)(C)OC3	7	4
C=CCOC(=O)C1=C(C)NC(=O)NC1c1cc2c(cc1Br)OCO2 (configuration not stated)	-8	-2
Cc1nnc(N(C)c2ccccc2)[nH]c1=O	-1	-2
O=C1NC(=O)C(c2ccccn2)(C2CCN(c3ncccc3Cl)CC2)N1 (configuration not stated)	2	1
CSCc1ccc(C(=O)N(C)CC2CCN(CCc3ccc(Cl)cc3)CC2)o1	5	1
COc1ccc(CC(=O)Nc2c(C)nc3ccccn3c2=O)cc1	4	3
CCc1cccc2c(C(CC(=O)N3CCC4(CC3)OCCO4)c3cccc([N+](=O)[O-])c3)c[nH]c12 (configuration not stated)	-1	2
CCOC(=O)CC1COCCN1C(=O)c1ccc2oc(CCCc3ccccc3)nc2c1 (configuration not stated)	15	6
C=CCC1(CC=C)CCCN1C(=O)C1CCCCO1 (configuration not stated)	-1	-2
COc1ccc(-c2cc(C(F)(F)F)n3ncc(C(=O)Nc4ccc(OC)c(OC)c4)c3n2)cc1	-15	-3
CCn1c(O)c(N=NC(=O)c2cccc(Cl)c2)c2ccccc21	-7	-12
Cc1cccc(-c2noc(N3CCOCC3)c2CN(Cc2ccco2)C(=O)C2CC2)c1	5	9
CSc1ccc(C2SCC(=O)N2c2ccc(C)c(F)c2)cc1 (configuration not stated)	-6	-11
Cc1csc(CCNC(=O)C2CC2c2ccc(Br)cc2)n1 (configuration not stated)	-6	-7
CCc1nc2ccc(C(=O)Nc3ccc(OC)c(OC)c3)cn2c1N(C)C(=O)Cc1ccccc1	-1	-8
COc1ccccc1NC(=O)Nc1ccc(N2CCC(Cc3ccccc3)CC2)c(C(=O)NCc2ccc(F)cc2)c1	-1	5
O=C(Nn1ccc2nc(N3CCOCC3)ncc2c1=O)c1cccnc1	1	1
COCCn1c(SCCc2ccccc2)nc2cc(Cl)ccc2c1=O	1	2
CC(C)c1cc(N2CCc3onc(-c4cccc(F)c4)c3C2)ncn1	5	1
O=C(Nc1ccnn1C1CCN(Cc2cn[nH]c2-c2ccccc2)CC1)c1ccccc1	2	-1
CC(C)N(Cc1nccn1C)CC1CC=CCC1 (configuration not stated)	3	2
Cc1ccc(-c2csc3ncn(Cc4cc(=O)n5ccsc5n4)c(=O)c23)s1	-1	-4

Ordered by heavy-atom count (smallest number first): some entries from above.
SMILES	NPYLR7 ag	NPYLR7 ag max-min
CC(C)N(Cc1nccn1C)CC1CC=CCC1 (configuration not stated)	3	2
Cc1ccc(-c2csc3ncn(Cc4cc(=O)n5ccsc5n4)c(=O)c23)s1	-1	-4
O=C(Nc1ccnn1C1CCN(Cc2cn[nH]c2-c2ccccc2)CC1)c1ccccc1	2	-1

Remaining list, next part
SMILES	NPYLR7 ag	NPYLR7 ag max-min
O=C(O)Cn1c(Cl)nnc1Cl	3	10
COc1ccc(N2C(=O)CN(C(=O)c3ccc(F)c(F)c3)CC2(C)C)cc1	6	4
CC(=O)O[C@@H]1C[C@@]2(C)C(CC[C@@H]2C(C)=O)C2CCC3=CC(=O)CC[C@]3(C)C21 (some centres not stated)	-10	-14
CC(C)CCC1(C2CCNCC2)NC(=O)N(CCO)C1=O (configuration not stated)	-1	4
Cc1ccc(-c2cc(C(=O)O)n(-c3ccc(C)cc3C)n2)cc1	0	-2
CCNC(=O)COc1ccc(C2NC(=O)c3ccccc3N2)cc1OC (configuration not stated)	5	-3
Cn1nc(-c2cccc(NC(=O)C(c3ccccc3)c3ccccc3)c2)ccc1=O	3	1
N#C/C(C(N)=O)=C1/CCCN1Cc1ccccc1	0	-2
CCSC(C(=O)N1CCN(Cc2noc(CC)n2)CC1)C(C)C (configuration not stated)	-1	-3
Cc1c(C(=O)NCC(=O)N(C)C)oc2c(Cl)cccc12	10	5
Cc1ccc(/C=C/C(=O)O)cc1S(=O)(=O)N1CCC(C(=O)O)CC1	-4	-4
C=CCOc1cccc(C(=O)N2CCCC(CCC(=O)N3CCOCC3)C2)c1 (configuration not stated)	-2	-6

Reprinted from above, 20 compounds:
SMILES	NPYLR7 ag	NPYLR7 ag max-min
Cc1csc(CCNC(=O)C2CC2c2ccc(Br)cc2)n1 (configuration not stated)	-6	-7
CCc1nc2ccc(C(=O)Nc3ccc(OC)c(OC)c3)cn2c1N(C)C(=O)Cc1ccccc1	-1	-8
COc1ccccc1NC(=O)Nc1ccc(N2CCC(Cc3ccccc3)CC2)c(C(=O)NCc2ccc(F)cc2)c1	-1	5
O=C(Nn1ccc2nc(N3CCOCC3)ncc2c1=O)c1cccnc1	1	1
COCCn1c(SCCc2ccccc2)nc2cc(Cl)ccc2c1=O	1	2
CC(C)c1cc(N2CCc3onc(-c4cccc(F)c4)c3C2)ncn1	5	1
O=C(Nc1ccnn1C1CCN(Cc2cn[nH]c2-c2ccccc2)CC1)c1ccccc1	2	-1
CC(C)N(Cc1nccn1C)CC1CC=CCC1 (configuration not stated)	3	2
Cc1ccc(-c2csc3ncn(Cc4cc(=O)n5ccsc5n4)c(=O)c23)s1	-1	-4
O=C(O)Cn1c(Cl)nnc1Cl	3	10
COc1ccc(N2C(=O)CN(C(=O)c3ccc(F)c(F)c3)CC2(C)C)cc1	6	4
CC(=O)O[C@@H]1C[C@@]2(C)C(CC[C@@H]2C(C)=O)C2CCC3=CC(=O)CC[C@]3(C)C21 (some centres not stated)	-10	-14
CC(C)CCC1(C2CCNCC2)NC(=O)N(CCO)C1=O (configuration not stated)	-1	4
Cc1ccc(-c2cc(C(=O)O)n(-c3ccc(C)cc3C)n2)cc1	0	-2
CCNC(=O)COc1ccc(C2NC(=O)c3ccccc3N2)cc1OC (configuration not stated)	5	-3
Cn1nc(-c2cccc(NC(=O)C(c3ccccc3)c3ccccc3)c2)ccc1=O	3	1
N#C/C(C(N)=O)=C1/CCCN1Cc1ccccc1	0	-2
CCSC(C(=O)N1CCN(Cc2noc(CC)n2)CC1)C(C)C (configuration not stated)	-1	-3
Cc1c(C(=O)NCC(=O)N(C)C)oc2c(Cl)cccc12	10	5
Cc1ccc(/C=C/C(=O)O)cc1S(=O)(=O)N1CCC(C(=O)O)CC1	-4	-4

Continuation.
SMILES	NPYLR7 ag	NPYLR7 ag max-min
COc1cccc(CN(Cc2ccc(C(O)(c3ccc(F)cc3)c3ccc(F)cc3)o2)C2CC2)c1OC	0	-3
Cc1ccccc1Cn1cc(C(=O)NCCCc2scnc2C)nn1	-3	-7
Cc1cc(C)c(C(=O)N2CCC3(CCCN(Cc4cccnc4)C3=O)C2)o1 (configuration not stated)	2	-1
Cc1cc(C(=O)N2CCC(C(C)N3CCOCC3)CC2)ccc1F (configuration not stated)	3	1
N#CC1C(=N)Oc2cc(N)ccc2C1c1c(Cl)cccc1Cl (configuration not stated)	160*	165*
CCCCCCSc1nc(-c2ccc(Cl)cc2)cc(-c2ccccc2)c1C#N	-6	-10
COc1cccc(-c2cc(C(=O)NCCC(C)C)n3nc(C(C)(C)C)cc3n2)c1	12	16
CC(=O)Nc1nc2nc(C)c(C)c(=O)n2[nH]1	-7	-15
CC(C)(C)n1ncc(C(=O)Nc2ccc(NC(N)=O)cc2)c1C(F)(F)F	11	7
Cc1cc(Nc2ccncc2)n2nc(C(F)(F)F)c(-c3ccccc3)c2n1	2	0
CCn1cc2nc(OC)c(CNC(=O)Cc3csc(C)n3)cc2c1O	-5	-9
O=C(NC1CC1)c1cc(-c2ccccc2Cl)nc2cc(-c3ccccc3)nn12	20	29
Fc1cc2c(c(COc3cccc(-n4cnnn4)c3)c1)OCOC2	-3	-5
COc1ccc(CN2CCNC(=O)C2CC(=O)N(C)C2CCOCC2)cc1OC (configuration not stated)	6	0
Cc1ccc(N2C(N)=NC(N)=NC23CCCC3)c(C)c1	14	11
Cc1ccc(N2C(=O)CSC2c2cccc(NC(=O)c3cccc(Cl)c3)c2)c(C)c1 (configuration not stated)	4	4
O=C1NC(c2ccsc2)Nc2c1cnn2-c1cccc(C(F)(F)F)c1 (configuration not stated)	7	4
Cc1cc(C2CCCN2C(=O)NCCc2nnc3n2CCCCC3)no1 (configuration not stated)	2	5
CC1(C)C2CC=C(C=NNC(=S)Nc3cccnc3)C1C2 (configuration not stated)	8	9
CCOC1=NN(c2ccc([N+](=O)[O-])cc2)C(=O)/C1=C\c1ccco1	3	10
O=C(Nc1cc2c(cc1Cl)OCCO2)N1CCN(S(=O)(=O)c2ccccc2)CC1	9	7
Nc1c(C(=O)Nc2ccc(Cl)cc2)c2ccccn2c1C(=O)c1ccccc1	-4	-9
c1ccc(N2CCN(Cc3nc4ccccc4[nH]3)CC2)nc1	-14	-17
O=S(=O)(Nc1cccc(CO)c1)c1cc(Cl)cc(Cl)c1	10	8
CCC1(CC)Cc2ccccc2-c2c1c(=O)n(Cc1ccccc1)c1nnnn21	-2	4
CCOC(=O)[C@@H]1CN(Cc2ccccc2)[C@H]2c3cccc(C)c3O[C@@H]12	1	10
O=S1(=O)CCC(N2CCN(c3ccc(S(=O)(=O)N4CCOCC4)cn3)CC2)C1 (configuration not stated)	6	11
O=C(CSc1nncn2c1cc1occc12)NCc1ccco1	0	-3
CCOC(=O)N1CCN(C(c2ccccc2)C2Sc3ncnn3C2=O)CC1 (configuration not stated)	5	5
O=C(NCc1nnnn1-c1ccc(F)cc1)c1ccc2ccccc2c1	4	2
CNc1nc(-c2cc(NC3CCNCC3)nc3[nH]ccc23)nc2c1CCC2	36	24
Cc1ccc(CC(=O)Nc2ccnn2C(C)C)cc1F	-2	-5
CC(C)(C)c1cc(=O)[nH]c(C(C)(C)C)n1	-1&-6	2&-8
CN1CCC(n2cnc(-c3ccccc3)c2-c2cccc3cccnc23)CC1	3	2
CC(C)NC(=O)Nc1nnc(C(C)(C)c2ccccc2)s1	4	4
